UUG fidelity – modulators of start codon recognition fidelity in yeast. S. cerevisiae UUG-firefly luciferase reporter, luminescence/redox ratio. activity score, % at 18.7 µM. 350,000 tested, 0.13% active. AID 602363;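 active = replicate mean at a twofold rise or more, about +100% in these data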;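 note: firefly luciferase made from a UUG start codon reports start codon fidelity; reporter light over untreated wells divided by growth signal over untreated wells; some hits fall short of that in this replicate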
HIV Env fusion – HIV envelope-mediated fusion inhibition; HeLa-JRFL Env/CEM21 cell fusion, luciferase; inhibition, % at 12.3 µM; 360,000 tested, 1.1% active; AID 651610;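 active = mean replicate inhibition score of at least 50 and every replicate individually at or above 50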;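 note: 0% = plate neutral controls and 100% = maraviroc near 300 nM; one replicate is shown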
Active calls of the source: *; [ ] = another dose, or the depositor's remark. These rows are one share of the data; the hit share may differ from the screen's.

SMILES	UUG fidelity	HIV Env fusion
C[C@@H]1CCCCO[C@@H](CN(C)C(=O)Nc2cccc3ccccc23)[C@H](C)CN([C@@H](C)CO)C(=O)c2cc(NS(=O)(=O)c3cn(C)cn3)ccc2O1	-4	21[16.7 µM]
C[C@@H]1CN([C@@H](C)CO)C(=O)c2cc(NC(=O)CCCN(C)C)ccc2O[C@@H](C)CCCCO[C@@H]1CN(C)S(=O)(=O)c1ccc(F)cc1	18	19[16.7 µM]
C[C@@H]1CN([C@H](C)CO)C(=O)c2cc(C#Cc3ccccn3)cnc2O[C@H]1CN(C)Cc1cccnc1	2	5[16.7 µM]
COc1ccc(NC(=O)Nc2ccc3c(c2)C(=O)N([C@H](C)CO)C[C@@H](C)[C@H](CN(C)C(=O)Nc2ccc(OC)cc2)O3)cc1	2	4[16.7 µM]
CC(C)CC#Cc1ccc2c(c1)O[C@@H](CN(C)C(=O)C1CCCCC1)[C@H](C)CN([C@H](C)CO)S2(=O)=O	-16	23[16.7 µM]
Cc1ccc(S(=O)(=O)Nc2ccc3c(c2)CC(=O)N([C@H](C)CO)C[C@H](C)[C@@H](CN(C)S(=O)(=O)c2c(C)noc2C)O3)cc1	23	-13[16.7 µM]
C[C@@H]1CCCCO[C@@H](CN(C)C(=O)CCCN(C)C)[C@@H](C)CN([C@@H](C)CO)C(=O)c2cc(NC(=O)CCCN(C)C)ccc2O1	45	-19[16.7 µM]
C[C@H]1CCCCO[C@@H](CN(C)C(=O)Nc2ccc3c(c2)OCO3)[C@@H](C)CN([C@@H](C)CO)C(=O)c2cc(NC(=O)NC3CCCCC3)ccc2O1	-4	2[16.7 µM]
C[C@H]1CCCCO[C@H](CN(C)C(=O)Cc2ccccc2)[C@@H](C)CN([C@@H](C)CO)C(=O)c2cc(NC(=O)NC3CCCCC3)ccc2O1	4	13[16.7 µM]
COc1ccc(NC(=O)Nc2cccc3c2O[C@H](CN(C)Cc2ccccc2)[C@H](C)CN([C@H](C)CO)C3=O)cc1	9	-10[16.7 µM]
C[C@H](CO)N1C[C@H](C)[C@H](CN(C)C(=O)Nc2ccc3c(c2)OCO3)Oc2ccc(NC(=O)CCC(F)(F)F)cc2CC1=O	7	6[16.7 µM]
Cc1cc(C(=O)Nc2ccc3c(c2)C(=O)N(C)[C@H]2CC[C@H](CC(=O)N[C@@H](C)c4ccccc4)O[C@H]2CO3)no1	12	26[16.7 µM]
Cc1ccc(S(=O)(=O)Nc2ccc3c(c2)C(=O)N([C@H](C)CO)C[C@H](C)[C@@H](CN(C)C(=O)Cc2ccccc2)OCCCC[C@@H](C)O3)cc1	12	-6[16.7 µM]
Cc1noc(C)c1NC(=O)N[C@H]1CC[C@@H](CC(=O)Nc2ccc(-c3ccccc3)cc2)O[C@H]1CO	6	-9[16.7 µM]
C[C@@H]1CN([C@H](C)CO)C(=O)Cc2cc(NC(=O)Nc3ccc(F)cc3)ccc2O[C@@H]1CN(C)Cc1ccc(C(=O)O)cc1	5	7[16.7 µM]
Cc1noc(C)c1S(=O)(=O)Nc1ccc2c(c1)CC(=O)N([C@@H](C)CO)C[C@H](C)[C@@H](CN(C)Cc1ccc(Oc3ccccc3)cc1)O2	2	-4[16.7 µM]
C[C@H](CO)N1C[C@H](C)[C@@H](CN(C)S(=O)(=O)c2ccc(F)cc2)Oc2ccc(NC(=O)Cn3cnnn3)cc2C1=O	-1	-17[16.7 µM]
N#C[C@H]1[C@@H](c2ccc(C#Cc3cccc(F)c3)cc2)[C@@H](CO)N1C(=O)C1CCCC1	-6	13[16.7 µM]
C/C=C/c1ccc2c(c1)O[C@H](CN(C)CC1CC1)[C@H](C)CN([C@H](C)CO)S2(=O)=O	-7	-15[16.7 µM]
C[C@@H]1CN([C@H](C)CO)C(=O)c2cccc(NS(=O)(=O)c3ccc(F)cc3)c2O[C@H]1CN(C)Cc1ccc(C(F)(F)F)cc1	-5	39[16.7 µM]
C[C@@H]1CCCCO[C@H](CN(C)Cc2ccc(C(F)(F)F)cc2)[C@H](C)CN([C@H](C)CO)C(=O)c2cc(NC(=O)Nc3ccc(C(F)(F)F)cc3)ccc2O1	-7	11[16.7 µM]
C[C@@H]1CN([C@H](C)CO)C(=O)c2cc(NC(=O)C3CC3)ccc2O[C@@H]1CN(C)S(C)(=O)=O	-5	-8[16.7 µM]
O=C(Nc1ccccc1F)N[C@H]1CC[C@H](CCNC(=O)C2CC2)O[C@H]1CO	-20	1[16.7 µM]
C[C@H]1CCCCO[C@@H](CN(C)C(=O)CCC(F)(F)F)[C@@H](C)CN([C@@H](C)CO)C(=O)c2cc(NC(=O)C3CCCCC3)ccc2O1	40	-35[16.7 µM]
Cc1cccc(S(=O)(=O)N[C@@H]2CC[C@@H](CCNC(=O)Nc3cc(F)ccc3F)O[C@@H]2CO)c1	4	-37[16.7 µM]

New compounds follow
SMILES	UUG fidelity	HIV Env fusion
COCCNC(=O)C[C@H]1C[C@@H]2c3cc(NS(C)(=O)=O)ccc3O[C@@H]2[C@@H](CO)O1	14	4[16.7 µM]
C[C@@H]1CN([C@H](C)CO)C(=O)c2cc(NC(=O)Nc3ccccc3)ccc2O[C@@H]1CN(C)C(=O)Nc1ccc(C(F)(F)F)cc1	-4	4[16.7 µM]
C[C@@H]1CN([C@H](C)CO)C(=O)c2cc(NC(=O)NC3CCCCC3)ccc2O[C@@H](C)CCCCO[C@@H]1CN(C)C(=O)c1ccccc1	23	6[16.7 µM]
C[C@@H]1CN([C@@H](C)CO)C(=O)c2cc(N(C)C)ccc2O[C@@H](C)CCCCO[C@@H]1CN(C)C(=O)C1CCCCC1	3	-22[16.7 µM]
O=C(Nc1ccc(C(F)(F)F)cc1)N[C@H]1CC[C@@H](CCn2cc(C3(O)CCCC3)nn2)O[C@H]1CO	0	7[16.7 µM]
C[C@@H]1CCCCO[C@@H](CN(C)Cc2ccc(Cl)c(Cl)c2)[C@@H](C)CN([C@@H](C)CO)C(=O)c2cc(NS(=O)(=O)c3ccc(F)cc3)ccc2O1	2	-1[16.7 µM]
C[C@H]1CN([C@@H](C)CO)C(=O)c2cccc(NC(=O)c3ccncc3)c2O[C@H]1CN(C)Cc1ccc(Cl)c(Cl)c1	0	18[16.7 µM]
O=C(C[C@@H]1C[C@H]2c3cc(NC(=O)c4cccnc4)ccc3O[C@H]2[C@@H](CO)O1)NCc1ccccc1	-15	3[16.7 µM]
COc1ccccc1-c1cnc2c(c1)C(=O)N([C@H](C)CO)C[C@H](C)[C@@H](CN(C)Cc1ccccc1)O2	36	-13[16.7 µM]
Cc1ccc(S(=O)(=O)N(C)C[C@@H]2Oc3ccc(NC(=O)NC(C)C)cc3C(=O)N([C@@H](C)CO)C[C@H]2C)cc1	9	11[16.7 µM]
COc1ccccc1NC(=O)N[C@@H]1CC[C@@H](CCn2cc(-c3cccnc3)nn2)O[C@H]1CO	-10	-1[16.7 µM]
CCNC(=O)C[C@@H]1CC[C@H]2[C@H](COc3ccc(NC(=O)Nc4ccc(F)cc4)cc3C(=O)N2C)O1	-6	-5[16.7 µM]
CC(C)CC#Cc1cnc2c(c1)C(=O)N([C@H](C)CO)C[C@H](C)[C@H](CN(C)C(=O)c1ccc(F)cc1)O2	9	9[16.7 µM]
CO[C@H]1CN(C)C(=O)c2ccc(NS(=O)(=O)c3ccc(Cl)cc3)cc2OC[C@@H](C)N(C)C[C@@H]1C	1	-5[16.7 µM]
Cc1noc(C)c1S(=O)(=O)N(C)C[C@@H]1OCCCC[C@@H](C)Oc2ccc(NS(=O)(=O)c3cccs3)cc2C(=O)N([C@H](C)CO)C[C@H]1C	21	42[16.7 µM]
C/C=C/c1ccc2c(c1)O[C@@H](CN(C)C(=O)c1ccccc1)[C@@H](C)CN([C@@H](C)CO)S2(=O)=O	6	25[16.7 µM]
CNC[C@@H]1Oc2ccc(NS(=O)(=O)c3ccc(OC)cc3)cc2CC(=O)N([C@@H](C)CO)C[C@@H]1C	-7	-11[16.7 µM]
COc1ccc(NC(=O)Nc2cccc3c2O[C@H](CN(C)S(=O)(=O)c2ccc(C)cc2)[C@H](C)CN([C@@H](C)CO)C3=O)cc1	13	-5[16.7 µM]
C/C=C/c1ccc2c(c1)O[C@H](CN(C)C(=O)CC1CC1)[C@@H](C)CN([C@@H](C)CO)S2(=O)=O	12	15[16.7 µM]
CCCN(C)C[C@H]1Oc2cc(C#Cc3ccccc3OC)ccc2S(=O)(=O)N([C@@H](C)CO)C[C@H]1C	13	-21[16.7 µM]
O=C(CCN1CCCCC1)NCC[C@H]1CC[C@@H](NC(=O)c2ccc(F)cc2)[C@H](CO)O1	-3	-21[16.7 µM]
C[C@@H]1CCCCO[C@H](CN(C)Cc2ccncc2)[C@@H](C)CN([C@@H](C)CO)C(=O)c2cc(NS(=O)(=O)c3ccccc3)ccc2O1	-9	-69[16.7 µM]
C[C@H](CO)N1C[C@H](C)[C@H](CN(C)Cc2ccc(-c3ccccc3)cc2)Oc2ccc(NS(=O)(=O)c3cccs3)cc2CC1=O	3	5[16.7 µM]
C[C@H]1CN([C@@H](C)CO)C(=O)c2cc(NC(=O)CCN3CCOCC3)ccc2O[C@H]1CN(C)Cc1ccc2c(c1)OCO2	-3	-4[16.7 µM]
O=C(C[C@H]1C[C@H]2c3cc(NC(=O)NC4CCCC4)ccc3O[C@H]2[C@H](CO)O1)NC1CCCCC1	9	14[16.7 µM]

Molecules listed so far that have a CF3 group, in the order listed:
SMILES	UUG fidelity	HIV Env fusion
C[C@H](CO)N1C[C@H](C)[C@H](CN(C)C(=O)Nc2ccc3c(c2)OCO3)Oc2ccc(NC(=O)CCC(F)(F)F)cc2CC1=O	7	6[16.7 µM]
C[C@@H]1CN([C@H](C)CO)C(=O)c2cccc(NS(=O)(=O)c3ccc(F)cc3)c2O[C@H]1CN(C)Cc1ccc(C(F)(F)F)cc1	-5	39[16.7 µM]
C[C@@H]1CCCCO[C@H](CN(C)Cc2ccc(C(F)(F)F)cc2)[C@H](C)CN([C@H](C)CO)C(=O)c2cc(NC(=O)Nc3ccc(C(F)(F)F)cc3)ccc2O1	-7	11[16.7 µM]
C[C@H]1CCCCO[C@@H](CN(C)C(=O)CCC(F)(F)F)[C@@H](C)CN([C@@H](C)CO)C(=O)c2cc(NC(=O)C3CCCCC3)ccc2O1	40	-35[16.7 µM]
C[C@@H]1CN([C@H](C)CO)C(=O)c2cc(NC(=O)Nc3ccccc3)ccc2O[C@@H]1CN(C)C(=O)Nc1ccc(C(F)(F)F)cc1	-4	4[16.7 µM]
O=C(Nc1ccc(C(F)(F)F)cc1)N[C@H]1CC[C@@H](CCn2cc(C3(O)CCCC3)nn2)O[C@H]1CO	0	7[16.7 µM]

More compounds:
SMILES	UUG fidelity	HIV Env fusion
C[C@@H]1CN([C@@H](C)CO)S(=O)(=O)c2ccc(-c3cccnc3)cc2O[C@H]1CN(C)C(=O)c1cccc(F)c1	3	8[16.7 µM]
O=S(=O)(N[C@H]1CC[C@H](CCNS(=O)(=O)c2ccccc2Cl)O[C@@H]1CO)c1ccccc1	11	37[16.7 µM]
COc1ccccc1S(=O)(=O)N[C@@H]1CC[C@@H](CC(=O)N2CCCCC2)O[C@@H]1CO	-17	17[16.7 µM]
C[C@H](CO)N1C[C@H](C)[C@@H](CN(C)C(=O)Nc2cccc3ccccc23)Oc2ccc(NC(=O)c3ccncc3)cc2CC1=O	13	8[16.7 µM]
O=C(C[C@@H]1C[C@H]2c3cc(NC(=O)NC4CCCC4)ccc3O[C@H]2[C@H](CO)O1)NCc1ccccc1	-11	-14[16.7 µM]
CN(C)CC(=O)Nc1ccc2c(c1)[C@@H]1C[C@H](CC(=O)NCc3cccc(F)c3)O[C@@H](CO)[C@@H]1O2	1	1[16.7 µM]
C[C@@H]1CCCCO[C@@H](CN(C)S(=O)(=O)c2ccc(F)cc2)[C@@H](C)CN([C@@H](C)CO)C(=O)c2cc(NC(=O)c3ccccc3)ccc2O1	-2	-4[16.7 µM]
C[C@@H]1CCCCO[C@@H](CN(C)S(=O)(=O)c2ccccc2)[C@@H](C)CN([C@H](C)CO)C(=O)c2cc(NC(=O)Nc3ccc(F)cc3)ccc2O1	-8	3[16.7 µM]
COc1ccc(CN(C)C[C@H]2OCCCC[C@H](C)Oc3ccc(NC(=O)NC(C)C)cc3C(=O)N([C@@H](C)CO)C[C@@H]2C)cc1	20	-11[16.7 µM]
COCC#Cc1ccc2c(c1)O[C@H](CN(C)S(=O)(=O)c1ccc(C)cc1)[C@@H](C)CN([C@@H](C)CO)S2(=O)=O	3	-19[16.7 µM]
C[C@H](CO)N1C[C@H](C)[C@@H](CN(C)C(=O)C2CCC2)Oc2ncc(C#CCc3ccccc3)cc2C1=O	11	-1[16.7 µM]
C[C@H](CO)N1C[C@H](C)[C@@H](CN(C)C(=O)Nc2ccc(F)cc2)OCCCC[C@H](C)Oc2ccc(NC(=O)Nc3ccccc3)cc2C1=O	-2	7[16.7 µM]
C[C@H](CO)N1C[C@H](C)[C@H](CN(C)Cc2ccc(Oc3ccccc3)cc2)Oc2ccc(NC(=O)CCC(F)(F)F)cc2C1=O	10	16[16.7 µM]
CO[C@H]1CN(C)C(=O)c2cc(NC(=O)c3cc(C)on3)ccc2OC[C@@H](C)N(C)C[C@@H]1C	-3	5[16.7 µM]
C[C@H]1CN([C@@H](C)CO)C(=O)c2cccc(NC(=O)c3cnccn3)c2O[C@@H]1CN(C)C(=O)Nc1ccc(F)cc1	6	11[16.7 µM]
CCCN(C)C[C@H]1Oc2cc(C#CCC(C)C)ccc2S(=O)(=O)N([C@@H](C)CO)C[C@H]1C	-4	-30[16.7 µM]
C[C@@H]1CN([C@@H](C)CO)C(=O)c2cc(NC(=O)CCCN(C)C)ccc2O[C@@H](C)CCCCO[C@H]1CN(C)C(=O)Nc1cccc2ccccc12	8	21[16.7 µM]
C[C@H]1CN([C@@H](C)CO)C(=O)c2cccc(NC(=O)c3nc4ccccc4s3)c2O[C@@H]1CN(C)S(=O)(=O)c1cccs1	10	-9[16.7 µM]

From PubChem BioAssay
